VDR inh – vitamin D3 receptor (human) inhibition. Potency, µM, without a hit: max response, negative = inhibition, usual class: inhibitors. P11473. AID 504847. 0.93% of 400,000 active. VDR-SRC2-3 peptide fluorescence polarization, 2 h; active = well fitted inhibition curve with a large enough effect; inconclusive = small, poorly fitted or top-dose-only effect, or another doubt; inactive = no such curve, though single readings can be large or run the other way; also: series mostly up to about 120 µM
Target sequence (P11473 whole entry, looked up): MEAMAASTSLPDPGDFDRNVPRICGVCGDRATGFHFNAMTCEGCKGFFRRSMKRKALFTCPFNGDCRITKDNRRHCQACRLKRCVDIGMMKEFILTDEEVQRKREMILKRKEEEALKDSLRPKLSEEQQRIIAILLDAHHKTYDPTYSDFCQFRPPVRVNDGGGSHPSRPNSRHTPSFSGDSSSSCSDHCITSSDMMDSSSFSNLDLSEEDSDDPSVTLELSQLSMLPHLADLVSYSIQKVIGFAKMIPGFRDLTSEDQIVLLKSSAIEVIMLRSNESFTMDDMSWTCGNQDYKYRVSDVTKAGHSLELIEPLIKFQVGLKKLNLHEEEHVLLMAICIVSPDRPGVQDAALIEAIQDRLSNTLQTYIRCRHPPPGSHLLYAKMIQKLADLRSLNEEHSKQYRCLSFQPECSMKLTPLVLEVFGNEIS
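After 23 nl compound addition and a short centrifugation, plates sat for 2 hours at ambient temperature; polarization of fluorescence then indicated loss of VDR binding to peptide SRC2-3.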
Starred values were filed as active, the others as inactive; ? = inconclusive; & = joins results of further samples; [ ] = dose if it differs, or a comment. % is scaled to controls: 0 for no effect and ±100 for the full control effect; potency is read from the fitted curve at half-maximal effect. An excerpt; count on the stated rates, not on these rows.

SMILES	VDR inh
COc1ccc2c(CC(=O)N(C)CC3COc4ccccc4O3)coc2c1 (centres undefined)	6%
Cc1ccc([N+](=O)[O-])cc1N/C=C1\CCc2ccccc2C1=O	-14%
Cc1c(C(=O)N2CCCC2)sc(NC(=O)c2ccccc2)c1C#N	7%
C=CCc1cccc(CNc2nc3ccccc3n2CCN2CCOCC2)c1O	11%
COc1cccc(Cn2nc(C(=O)O)c3ccccc3c2=O)c1	-5%
C=CCSc1nnc(NC(=O)C2CC(=O)N(c3ccc4c(c3)OCCO4)C2)s1 (centres undefined)	12%
Cn1c(SCc2cccc(F)c2)nnc1-c1ccccn1	1%
N#CC(C#N)=CNc1cccnc1	5%
CCC(=O)N1N=C(c2cccc(NS(C)(=O)=O)c2)CC1c1cccs1 (centres undefined)	-4%
COc1ccc(OC)c(CN2CCN(CC(=O)Nc3ccccc3C(=O)NC3CC3)CC2)c1	4%
O=C(O)c1cc(-c2ccncc2)nc2ccc(S(=O)(=O)N3CCOCC3)cc12	26%
COc1ccc(Nc2nc3c(S(=O)(=O)c4ccccc4)nnn3c3ccc(Cl)cc23)cc1	-11%
Cc1ccc(NC(=O)c2sccc2-n2cccc2)c(C)c1	26%
CCSC1=NCCN1C(=O)c1ccc(S(=O)(=O)N(CC)CC)cc1	-2%
O=C(CSc1ccccc1)N1CCc2ccccc21	9%
CCCC(=O)Oc1ccc(C2NC(=O)c3ccccc3O2)cc1OC (centres undefined)	-8%
Cc1cc(/C=N/NC(=O)Cn2c3ccccc3c(=O)c3ccccc32)c(C)n1-c1ccccc1	0%
CCOc1ccc(NC(=O)CC2NCCNC2=O)cc1 (centres undefined)	-10%
CCOc1ccc(-n2c(SCC(=O)Nc3ccc(C(=O)O)cc3)nc3ccccc3c2=O)cc1	-10%
CCn1c(SCc2cccc(F)c2)nc2c(c1=O)SCC2	-21%
COc1ccc2oc(=O)c(N3C(=O)c4ccccc4C3=O)cc2c1	0%
Cc1c(C(=O)NC2CCOC2)oc2c(F)cccc12 (centres undefined)	5%
COc1ccc(-c2cc3ccc(O)c(CN4CCC(C)CC4)c3oc2=O)cc1OC	17%
CC(=O)Nc1ccn(Cc2c(F)cccc2Cl)n1	-1%
CSc1ccc(/C=C(\NC(=O)c2ccccc2)C(=O)NN)cc1	23%
The listing continues.
SMILES	VDR inh
S=c1[nH]nc(COc2cccc3ccccc23)n1Cc1ccccc1	4%
CCOc1ccc(-n2cc(-c3ccccc3)c3c(NCCc4ccccc4)ncnc32)cc1	-1%
C/C(=N\NC(=O)c1ccncc1)c1cccnc1	8%
Cc1cccc(N(CC(=O)NCCc2ccccc2)S(=O)(=O)c2ccccc2)c1C	-22%
COc1cccc(CN(C)CC(=O)NCc2ccccc2Cl)c1	22%
CCCCNC(=O)NS(=O)(=O)c1ccc(NC(=O)CCC(=O)c2cccs2)cc1	-9%
COc1ccc(NC(=O)CN(C)C(=O)c2cc3c(s2)CCCCC3)cc1	-15%
NC(=O)c1ccccc1NC(=O)COC(=O)CSCc1cccc(Cl)c1	-14%
Cc1n[nH]c(C)c1S(=O)(=O)N(CC(=O)NC1CCCC1)c1ccc(C(C)C)cc1	-4%
CCc1nnc(NC(=O)CN2CCN(c3ccccc3OC)CC2)s1	-2%
Cc1cc(C)c(NC(=O)CSc2nc3nc(C)cc(C)n3n2)c(C)c1	21%
Cc1cc(C)n2nc(SCC(=O)c3cccs3)nc2n1	4%
CCN(Cc1ccc(NC(C)=O)cc1)CC1CCCN(CCc2cccc(F)c2)C1 (centres undefined)	-2%
Cc1cc(C)cc(NC(=O)N2CCNC(=O)C2CC(=O)Nc2cc(Cl)ccc2Cl)c1 (centres undefined)	10%
CCCn1c2ccc(C)cc2c2n[nH]c(=S)nc21	-15%
O=C(CSc1ccc([N+](=O)[O-])cc1)Nc1ccccc1N1CCOCC1	-12%
CN1CCOCCOc2ccccc2OCCOCC1	-4%
O=[N+]([O-])c1cc([N+](=O)[O-])c(Oc2cncc(Cl)c2)cc1NC1CCCCCCC1	-20%
O=C(Cn1c(=O)oc2cc(S(=O)(=O)N3CCCCCC3)ccc21)NC1CCCCC1	-5%
Cc1cccc(C(=O)c2ccccc2C(=O)O)c1O	0%
CN(C)C(=O)CCc1ccc2c3c([nH]c2c1)[C@]1(C)[C@@H](C(=O)N2CCOCC2)C[C@H](CC(=O)NCCC2=CCCCC2)C(=O)N1CC3	-12%
O=C(O)CCCC(=O)Nc1ccc(C(=O)N2CCCCC2)c(Cl)c1	3%
Cc1ncsc1CCOC(=O)C1C2CC3CC(C2)CC1C3 (centres undefined)	-14%
COc1ccc(C(=O)NCCc2c[nH]c3ccccc23)cc1[N+](=O)[O-]	-14%
CC(C)OC(=O)CC(=O)CSc1nc2c(cc1C#N)CCC2	0%

A second format for 2 compounds above.
| smiles | VDR inh |
| --- | --- |
| Cc1cc(C)cc(NC(=O)N2CCNC(=O)C2CC(=O)Nc2cc(Cl)ccc2Cl)c1 (centres undefined) | 10% |
| CCCn1c2ccc(C)cc2c2n[nH]c(=S)nc21 | -15% |

The listing continues:
SMILES	VDR inh
COc1ccc(-c2cc(COc3ccccc3)on2)cc1	6%
Cc1cc(=O)oc2cc(OCC(=O)NCc3ccncc3)ccc12	7%
CC(C)(C)CC(=O)Nc1cc(S(=O)(=O)N2CCCCCC2)ccc1Cl	-10%
C#CC1(NC(=O)NC(=O)c2c(F)cccc2F)CCCCC1	-14%
O=C(NCC(=O)N1CCN(S(=O)(=O)c2ccccc2)CC1)c1ccc(Br)o1	-8%
Cc1ccc2cc(C)c(SCC(=O)Nc3ccc(S(=O)(=O)N4CCCC4)cc3)nc2c1	-13%
COc1cc(NC(=S)N2CCC(C(N)=O)CC2)cc(OC)c1	-6%
O=C(NC1CCN(S(=O)(=O)c2ccccc2)CC1)C1CCCCC1	1%
CN1/C(=C\C(=O)C[n+]2cccc(C(N)=O)c2)C(C)(C)c2ccccc21	72%[activator]
CN(CCCNC(=O)COc1cc(=O)n(C)c2ccccc12)Cc1ccccc1	14%
Cn1c(=O)c(-c2ccccc2)nc2cnc(N3CCOCC3)nc21	-4%
Cc1csc(SC(C)C(=O)Nc2ccc3c(c2)OCCO3)n1 (centres undefined)	-9%
COC(=O)[C@H]1C[C@@H]1[C@H](N)c1ccccc1	17%&11%
Cc1c(F)c(N2CCNC(C)C2)cc2c1c(=O)c(C(=O)O)cn2C1CC1 (centres undefined)	9%
CCOC(=O)N1CCN(C(=O)CSc2nnc(CNC(=O)c3ccccc3F)o2)CC1	5%
CN(C)c1nc(N2CCN(c3ccc(F)cc3)CC2)c(C#N)c(=O)o1	-14%
CCCCC1CCC(C(=O)NC2CCS(=O)(=O)C2)CC1 (centres undefined)	22%
CCC(C(=O)NCc1cccc(C)c1)n1nc(C)c2c(C)n(-c3ccccc3)nc2c1=O (centres undefined)	-3%
Cc1ccc(-c2ccc(C(=O)NCc3ccccc3)o2)c2ccccc12	?
COc1cccc(C2CC(c3cccc(NS(C)(=O)=O)c3)=NN2C(=O)c2ccccc2)c1OC (centres undefined)	2%
COc1ccc2nc(SCC(N)=O)cc(C)c2c1	-7%
CCCNS(=O)(=O)c1ccc(-n2cnnn2)c(OC)c1	32%[activator]
O=C(CCCCn1c(=O)c2ccccc2n(Cc2ccccc2Cl)c1=O)NCCc1ccccc1	-5%
CCCc1nc(SC)ncc1C(=O)N1CCN(c2ccc(Cl)cc2)CC1	3%
COc1ccc(OC)c(CNC(=O)C2CCN(S(C)(=O)=O)CC2)c1	-4%

Ordered by the number under VDR inh (smallest number first): 7 of the compounds above
smiles | VDR inh
Cc1ccc2cc(C)c(SCC(=O)Nc3ccc(S(=O)(=O)N4CCCC4)cc3)nc2c1 | -13%
CC(C)(C)CC(=O)Nc1cc(S(=O)(=O)N2CCCCCC2)ccc1Cl | -10%
CCCCNC(=O)NS(=O)(=O)c1ccc(NC(=O)CCC(=O)c2cccs2)cc1 | -9%
COc1ccc2nc(SCC(N)=O)cc(C)c2c1 | -7%
CN1CCOCCOc2ccccc2OCCOCC1 | -4%
CC(=O)Nc1ccn(Cc2c(F)cccc2Cl)n1 | -1%
COc1ccc(-c2cc3ccc(O)c(CN4CCC(C)CC4)c3oc2=O)cc1OC | 17%

Next records:
SMILES	VDR inh
Nc1ncnc2c1ncn2[C@@H]1O[C@H](CNCc2ccccc2OCc2ccc(Cl)cc2Cl)[C@@H](O)[C@H]1O	-3%
CCOC(=O)[C@H]1[C@H]2COc3ccccc3[C@@H]2N2C(=O)c3ccc(C)cc3NC(=O)[C@@]12C	-12%
O=C(Nc1cccc(F)c1)N1CC=C(n2c(=O)[nH]c3ccccc32)CC1	5%
CC(C)CCN1CCN(Cc2nc3c(s2)CCCC3)CC1CCO (centres undefined)	-17%
COc1ccc(OC)c(NC(=O)NC2CCCc3ccccc32)c1 (centres undefined)	25%
CCOc1ccc(/C=N/NC(=O)c2cc3c(OC)cc(OC)c(OC)c3[nH]2)cc1	21%
CCN(CC)c1ccc(NC(=O)c2cnn(-c3ccccc3)c2-n2cccc2)c(C)c1	8%
O=C(O)c1cnn(-c2nc(-c3cccc([N+](=O)[O-])c3)cs2)c1C(F)(F)F	-10%
CCCc1[nH]n(-c2ccc(F)cc2)c(=O)c1C=NCC1CCCO1 (centres undefined)	-7%
CCOC(=O)C1=C(CN2CCc3ccccc32)NC(=O)NC1c1ccc(Cl)cc1 (centres undefined)	-6%
CCOC(=O)Cc1csc(NC(=O)c2ccc(Cl)s2)n1	-11%
Cc1nnc(NC(=O)CSc2nnnn2Cc2ccccc2)s1	1%
O=C(CSc1nc(-c2cccc(Cl)c2)nc2cc(=O)[nH]n12)Nc1ccccc1	-1%
C=CCNC(=O)NC(=O)Cn1c(=O)c2c(ncn2CC)n(Cc2ccccc2)c1=O	-9%
Cc1ccc(/C=C2\CCOC2=O)cc1	-9%
COc1ccc(C2/C=C\CC(NC(=O)OCC3c4ccccc4-c4ccccc43)CC(=O)N2Cc2ccccc2F)cc1 (centres undefined)	?
CC(=O)Nc1sc(NC(=O)c2ccc(Cl)cc2)nc1-c1cccs1	-2%
Cc1cccc(C(=O)N2CCC(N3CCC(C(=O)N4CCOCC4)CC3)CC2)c1	-10%
Cc1ccccc1Cn1nc(C)c(NC(=O)c2cc(CC(C)C)on2)c1C	0%&0%
c1ccc(Cc2ccc(OCCn3ccnc3)cc2)cc1	-2%
COc1ccc(CC(=O)OCC(=O)Nc2cccc(Cl)c2)cc1	-12%
Cc1cccc2c1NC(=O)C2=O	-18%
CCOCC(=O)Nc1cc(C(=O)Nc2ccccc2)ccc1Cl	15%
Cc1ccc([N+](=O)[O-])cc1NC(=O)c1ccc(-c2ccccc2)cc1	9%
CS(=O)(=O)c1ccc(Cl)c(NC(=O)CCl)c1	5%
(more compounds)
SMILES	VDR inh
Cc1cc(C)n(-c2nnc(SCC(=O)NC3CCCC3)c3ccccc23)n1	-10%
CC(=O)OC1CCC2(C)C(=CCC3C2CCC2(C)C3CC3ON=C(C)C32)C1 (centres undefined)	-19%
Nc1ccc(S(=O)(=O)Nc2nccc(/C=C/c3ccc(Cl)cc3Cl)n2)cc1	-18%
O=C(CSc1nc(SCC(=O)NCc2ccccc2)n(-c2ccccc2)n1)NCc1ccccc1	-1%
COc1ccc(N=C2SC(C(=O)O)CC(=O)N2C)cc1 (centres undefined)	6%
COCC(=O)Nc1ccc(C)c(Cl)c1	-7%
NNC(=O)Cn1c(-c2ccccn2)nc2ccccc21	9%
O=C(COC(=O)/C=C/c1ccccc1Cl)NCc1ccccc1	-24%
COC(=O)c1cc(-c2c(C)oc3cc(OC(C)C)ccc3c2=O)c(C)o1	-9%
COc1cccc(N2CCN(C(=O)C3CCC(CNS(=O)(=O)c4ccc(Br)s4)CC3)CC2)c1 (centres undefined)	-17%
CCOC(=O)N1CCN(C(=O)CN(c2ccc(C)cc2C)S(=O)(=O)c2ccccc2)CC1	0%
COc1ccc(C2=NCCn3nc4ccccc4c32)cc1	-27%
CCOc1ccc(OCCN2C(=O)NC3(CCCc4ccccc43)C2=O)cc1 (centres undefined)	9%
COc1ccc(NC(=O)CN2CCN(Cc3ccccc3)CC2)cc1	3%
COC(=O)c1ccc(-c2noc(CN3C[C@H]4CC[C@H]3C4)n2)cc1	8%
Cc1sc2ncn(CC(=O)N3CCN(c4ccc(F)cc4)CC3)c(=O)c2c1S(=O)(=O)N1CCCCC1	-7%
COC(=O)Cc1ccc(NC(=O)c2ccc3c(c2)C(=O)N(Cc2ccco2)C3=O)cc1	-11%
CCCNC(=O)N1CCC(n2nccc2NC(=O)CCOc2ccccc2)CC1	-11%
COc1cccc(C(C[N+](=O)[O-])c2c(C)[nH]n(-c3ccccc3)c2=O)c1 (centres undefined)	?
Cc1oc2ncn(C)c(=O)c2c1C(=O)NCc1ccc(Cl)cc1	0%
O=C(CN1C(=O)CC(c2ccccc2)=Nc2ccccc21)NCc1ccco1	5%
CS(=O)(=O)N(Cc1cc2ccccc2[nH]c1=O)C1CCCCC1	-15%
c1nc(NCC2CCCO2)c2[nH]cnc2n1 (centres undefined)	-1%
NC(N)=N/N=C/c1ccc(Cl)c([N+](=O)[O-])c1	7%
CCOCCCNc1ccc(N2C(=O)C3CCCCC3C2=O)cc1[N+](=O)[O-] (centres undefined)	2%
The list goes on:
SMILES	VDR inh
COc1cc(NC(=O)c2ccc(C)c(Cl)c2)ccc1NC(=O)c1cc2ccccc2o1	-13%
CCCCCC(=O)NC(=S)Nc1ccc(NC(=O)c2ccco2)cc1	-3%
CCCCn1c(N)c(N(CCOC)C(=O)CSCc2ccc(C)cc2)c(=O)[nH]c1=O	-4%
Cc1nc(NC(=O)/C=C/c2ccc(C(C)(C)C)cc2)sc1C(=O)N(C)C	-2%
Cn1c(=O)c2c(nc(N3CCOCC3)n2Cc2ccccc2Cl)n(C)c1=O	-5%
CCC(=O)NCCn1c(C)cc2ccccc21	-13%
CN1CCC(=NNC(=O)CN(c2cccc(Br)c2)S(C)(=O)=O)CC1	9%
N#CCc1nn(-c2ccccc2)c2ncnc(N)c12	-4%

Grouped by structure, those above containing a tert-butyl group.
SMILES	VDR inh
CC(C)(C)CC(=O)Nc1cc(S(=O)(=O)N2CCCCCC2)ccc1Cl	-10%
Cc1nc(NC(=O)/C=C/c2ccc(C(C)(C)C)cc2)sc1C(=O)N(C)C	-2%

Compound activity from PubChem BioAssay.
